Assay outcomes: PubChem, several laboratories
UCH37 DUB inh: blocks the human deubiquitinase UCH37; Q9Y5K5; purified proteasome/UCH37, Ub-AMC cleavage fluorescence; inhibition, % (no concentration beside the values); 330,000 compounds, 0.33% hits; AID 588478;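 active = mean of two replicates above 20%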;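 note: 0% = compound-free wells with enzyme and 100% = wells lacking proteasome; stock transfer was 100 nL into about 20 µL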
Target sequence (Q9Y5K5 whole entry, looked up): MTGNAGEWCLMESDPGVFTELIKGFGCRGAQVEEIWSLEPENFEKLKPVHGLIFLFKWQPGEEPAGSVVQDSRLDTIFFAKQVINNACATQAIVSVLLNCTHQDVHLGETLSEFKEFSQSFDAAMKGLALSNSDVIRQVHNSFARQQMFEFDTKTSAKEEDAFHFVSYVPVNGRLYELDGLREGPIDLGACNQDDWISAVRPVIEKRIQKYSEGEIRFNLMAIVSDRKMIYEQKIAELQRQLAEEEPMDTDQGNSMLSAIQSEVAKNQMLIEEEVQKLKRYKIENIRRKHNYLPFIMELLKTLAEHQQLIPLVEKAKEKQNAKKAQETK
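Signal – fluorescence, ex 355 nm, em 460 nm · System – Proteasome-bound UCH37 · Input – 0.15 nM proteasome as dispensed · Timing – 30 min preincubation with enzyme, 25 min cleavage at room temperature · Read-out basis – percent inhibition of cleavage signal versus uninhibited and no-proteasome wells · Medium – Tris-HCl pH 7.4 with ATP-MgCl2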
T cruzi repl: blocks replication of Trypanosoma cruzi; T. cruzi beta-gal in NIH3T3, luminescence, 90 h; inhibition, % (concentration not given with the values); 300,000 compounds, 1.4% hits;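 active = mean inhibition across valid replicates above about 55%, limit read from the data; inconclusive = mean below that limit but half or more replicates reach it; inactive = mean below it, under half of replicates reach it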;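 note: signal also drops with host cell toxicity which is not excluded here; 0% = plate median of DMSO wells and 100% = zero luminescence signal; higher percent means less beta-gal luminescence so fewer parasites; stock transfer was 50 nL into about 50 µL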
Ecoli rRNA inh: selective bacterial rRNA inhibition in E. coli; E. coli WT GFP vs humanized-ribosome RFP mutants, fluorescence, 24 h; hits give low values; DMSO median 0, no signal -100; 350,000 compounds, 1.6% hits; GFP signal change (wild-type ribosome), % (test concentration not listed);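 active = significant combined selectivity score with lowered wild-type GFP, culture density cut under 30%, mutant RFP and density less affected; inactive = any of these conditions unmet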; note: one replicate is shown; some compounds called inactive have numbers as strong as hits
FGF22 binding: FGF22 (human) thermal shift binding; recombinant FGF22 thermal shift, SYPRO orange fluorescence; percent of sucrose octasulfate shift, DMSO zero; calls only at 9.99 µM; 340,000 compounds, 1.5% hits; Q9HCT0; AID 651658;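 active = melting point raised past a set limit in the mean and every replicate; inconclusive = no clear call; three in four hits are not shown here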
Ecoli growth: inhibitors of Escherichia coli growth; OD600 absorbance (test concentration not listed); 330,000 compounds, 0.21% hits; OD600, 23 h; hits give low values;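 active = OD600 absorbance below the run mean of sample wells minus 3.6 SD, in any replicate, cut at about 0.56 in these data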;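 note: stock transfer was 300 nL into about 60 µL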
AF4-AF9 inh: MLL-AF4/AF9 protein interaction inhibition; P42568; AlphaScreen, biotin-AF4 peptide binding to FLAG-AF9; inhibition, % at 10 µM; 350,000 compounds, 0.47% hits; AID 651704;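 active = every replicate reaching a set inhibition limit, whatever the replicate mean, cut at about 25% in these data; inconclusive = mean inhibition reaches that limit but some replicates miss it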;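 note: 0% = plate neutral control median and 100% = total signal loss; the record names both 10 and 1 µM as test concentration; the first replicate is given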
Target sequence (P42568 whole entry, looked up): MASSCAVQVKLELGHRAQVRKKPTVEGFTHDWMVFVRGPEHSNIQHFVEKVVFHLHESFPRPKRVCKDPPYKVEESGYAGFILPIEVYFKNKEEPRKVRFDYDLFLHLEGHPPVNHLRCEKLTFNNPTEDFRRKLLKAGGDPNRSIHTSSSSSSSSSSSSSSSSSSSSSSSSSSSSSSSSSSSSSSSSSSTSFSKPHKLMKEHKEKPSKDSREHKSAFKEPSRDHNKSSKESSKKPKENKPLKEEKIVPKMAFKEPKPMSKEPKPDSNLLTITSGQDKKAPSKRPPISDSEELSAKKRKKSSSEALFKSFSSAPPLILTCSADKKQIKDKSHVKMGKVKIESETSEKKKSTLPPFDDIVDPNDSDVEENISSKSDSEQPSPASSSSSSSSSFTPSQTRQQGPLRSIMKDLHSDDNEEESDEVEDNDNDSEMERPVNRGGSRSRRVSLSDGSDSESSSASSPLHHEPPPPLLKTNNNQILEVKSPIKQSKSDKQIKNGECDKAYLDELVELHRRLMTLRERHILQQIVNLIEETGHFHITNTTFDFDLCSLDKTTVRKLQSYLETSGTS
A1 inh: inhibitors of the anti-apoptotic protein A1, read as caspase activation; MEF A1-2A-BIM cells, Caspase-Glo 3/7 luminescence, 3 h; percent of clofoctol response, vehicle zero; caspase activation, % (no concentration beside the values); 330,000 compounds, 0.066% hits; AID 2462;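 active = over half of replicate activation scores above 10%, or exactly half above 10 with the replicate mean above 10; inconclusive = replicate mean below 10 yet half the replicates above 10; inactive = over half of replicates below 10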;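 note: wells of about 30 µL received 50 nL stock; many hits fall short of the cut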
Beta cell apopt: blocks beta cell apoptosis. AID 435005. INS-1E cytokine-induced death, ATP luminescence, 48 h; percent of positive-control rescue, neutral wells zero. protection from apoptosis, % (concentration not given with the values). 300,000 compounds, 0.8% hits;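 active = all replicates at 75% or more, or half of them and the mean; inconclusive = half reach 75% but not the mean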;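 note: 0% = cytokine-treated negative control wells and 100% = positive control rescue; higher means more ATP so stronger rescue from cytokine killing; wells of about 40 µL received 100 nL stock; the first replicate is given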
Ecoli rRNA inh OD600: second read-out of Ecoli rRNA inh, no call of its own (marks repeat the call); OD600 change, %; measured here: OD600 growth;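 optical density of the mix in the first replicate; 0 = DMSO median and -100 = no signal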
Ecoli rRNA inh RFP: further read-out of Ecoli rRNA inh, marked with its call; RFP signal change, %; measured here: RFP humanized mutant strains;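 first replicate; 0 = DMSO median and -100 = no signal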
An asterisk follows results filed as active; i = inactive; ? = inconclusive; · = no result given.

Molecule	UCH37 DUB inh	T cruzi repl	Ecoli rRNA inh	Ecoli rRNA inh OD600	Ecoli rRNA inh RFP	FGF22 binding	Ecoli growth	AF4-AF9 inh	A1 inh	Beta cell apopt
Cc1onc(-c2ccccc2)c1C(=O)NNC(=S)NC(=O)/C=C/c1ccccc1	0.3	-19	-25	-30	-16	i	0.68	-0.7	0.0	28
CCN1C[C@@H]2[C@@H]3C(=O)N(Cc4ccccc4)C(=O)[C@@H]3[C@](CC)(C1=O)N2C(=O)c1ccccc1	6.1	·	5	9	-7.3	i	·	3.6	·	·
Cc1cc(-c2ccc(C)c(S(=O)(=O)Nc3ccc(S(N)(=O)=O)cc3)c2)on1	2.1	-5	-3	-2	-0.6	i	0.69	-1.2	-0.7	-14
CC(C)Oc1ccc(S(=O)(=O)N2CCOCC2)cc1NC(=O)C1CCCCC1	1.5	·	2	8	-1.3	i	0.67	2.1	-1.4	-2
CCO[C@@H]1OC(C(=O)N2CCN(Cc3ccccc3)CC2)=C[C@H](C2CC2)[C@H]1CCCO	·	13	-8	-2	-6.9	i	·	-3.4	0.1	1
CCn1c(SCC(N)=O)nnc1-c1ccc2c(c1)OCO2	-1.7	-8	11	11	1.6	i	0.66	-1.4	-0.3	-4
COc1ccc(CCNC(=O)CCCOc2ccc(Cl)cc2)cc1OC	1.5	-3	-11	-7	0.2	i	0.66	-0.9	0.4	2
O=C(COC(=O)CNC(=O)c1ccccc1)NCc1ccc2c(c1)OCO2	2.7	·	·	·	·	i	0.68	1.7	0.1	-6
O=C(CSc1nnc(-c2ccccn2)o1)Nc1ccccc1Cl	4.8	2	0	-5	-1.6	i	0.67	-1.5	-0.5	·
CCCCC(=O)Nc1ccc2c3c(cccc13)C(=O)N2CC	4.8	-2	·	·	·	·	0.71	·	-1.5	-5

The last two records of the section above open the next one.
Molecule	UCH37 DUB inh	T cruzi repl	Ecoli rRNA inh	Ecoli rRNA inh OD600	Ecoli rRNA inh RFP	FGF22 binding	Ecoli growth	AF4-AF9 inh	A1 inh	Beta cell apopt
O=C(CSc1nnc(-c2ccccn2)o1)Nc1ccccc1Cl	4.8	2	0	-5	-1.6	i	0.67	-1.5	-0.5	·
CCCCC(=O)Nc1ccc2c3c(cccc13)C(=O)N2CC	4.8	-2	·	·	·	·	0.71	·	-1.5	-5
Cc1ccc(-n2c(-c3ccco3)nc3c(cnn3-c3ccc(C)cc3)c2=O)cc1	-1.0	32	6	8	2.1	i	0.71	11	0.9	·
NC(=O)C1CCN(CCC(=O)Nc2cccc(Cl)c2)CC1	2.6	-1	·	·	·	·	0.7	·	-0.6	-1
COC(=O)c1cccc(C23CC4(C2)[C@H](CN(CC2CCCCC2)[C@@H]4c2ccccc2)C3c2ccccc2)c1 (some centres undefined)	0.6	20	4	-4	0.2	i	·	·	0.9	3
O=C(COc1ccc(C(=O)NCCc2ccccc2)cc1)Nc1ccccc1	1.6	-2	16	11	-1.9	i	0.67	-10	0.1	-12
N#Cc1cccc(C(=O)OCC(=O)NCc2ccco2)c1	1.6	1	8	4	-3.0	i	0.62	?	0.2	-1
COc1ccc(NC(=O)/C=C/c2ccccc2)c([N+](=O)[O-])c1	2.8	-25	8	3	0.5	i	0.72	1.1	0.2	2
COc1ccc2c(c1OC)C(=O)N1N=C(c3ccc(Cl)cc3)CC21 (centres undefined)	1.5	18	-4	-7	-4.9	i	0.69	5.2	0.0	-1
CC(=O)c1ccc(N(CC(=O)NCc2ccc3c(c2)OCO3)C(=O)c2csnn2)cc1	1.9	13	10	17	5.7	i	0.63	-1.2	-0.8	0
CC(C)n1ncc2c(C(=O)NCCc3ccc(F)cc3)cc(C3CC3)nc21	-9.1	·	-43	-70	0.3	i	0.69	-2.1	·	·
CCSc1nc(N)c(NC(=O)c2ccc(Br)o2)c(=O)[nH]1	-2.0	-10	8	11	-0.5	i	0.71	-0.8	-0.4	0

The closing three entries of the part above lead into the next.
Molecule	UCH37 DUB inh	T cruzi repl	Ecoli rRNA inh	Ecoli rRNA inh OD600	Ecoli rRNA inh RFP	FGF22 binding	Ecoli growth	AF4-AF9 inh	A1 inh	Beta cell apopt
CC(=O)c1ccc(N(CC(=O)NCc2ccc3c(c2)OCO3)C(=O)c2csnn2)cc1	1.9	13	10	17	5.7	i	0.63	-1.2	-0.8	0
CC(C)n1ncc2c(C(=O)NCCc3ccc(F)cc3)cc(C3CC3)nc21	-9.1	·	-43	-70	0.3	i	0.69	-2.1	·	·
CCSc1nc(N)c(NC(=O)c2ccc(Br)o2)c(=O)[nH]1	-2.0	-10	8	11	-0.5	i	0.71	-0.8	-0.4	0
CCOC(=O)C(=O)N1c2ccccc2C(N(C(=O)C(=O)OCC)c2ccccc2)CC1C (centres undefined)	5.0	14	-15	-1	0.4	i	0.64	3.3	-0.6	-10
CCn1c(CNC(=O)c2cccc(C)c2)nnc1SCC(=O)Nc1cccc(OC)c1	2.0	-19	·	·	·	·	0.69	·	0.1	·
Cc1cccc(C)c1NC(=O)CSc1nnc(CCCCCNC(=O)OC(C)(C)C)o1	2.6	0	·	·	·	·	0.66	·	1.0	-4
Cc1ccccc1-c1ccc(Nc2ccc(C(=O)N3CCOCC3)cc2)nn1	2.5	-20	-6	3	-0.1	·	0.67	·	0.2	-5
COc1ccccc1C(O)P(=O)(OC1CCCCC1)OC1CCCCC1 (centres undefined)	5.3	-2	-16	-16	-1.2	i	0.67	·	-0.2	-4
CCOc1cc([C@H]2[C@@H]3CCCC[C@]3(O)CCN2CC(=O)NCc2ccco2)ccc1O	-0.5	-6	·	·	·	·	0.71	·	1.1	-4
CNC(=O)c1nc(C)c(C2(C)CC(c3ccccc3)=NO2)s1 (centres undefined)	3.5	3	8	10	-6.7	i	0.68	-1.8	-1.0	2
COc1cc(C2SCC(=O)N2c2c(C)n(C)n(-c3ccccc3)c2=O)ccc1O (centres undefined)	1.3	14	8	7	0.3	i	0.68	0.1	-0.8	5
CC(NC(=O)CN1C(=O)NC2(CCCCCC2)C1=O)c1ccccc1 (centres undefined)	2.7	·	3	2	-3.5	i	0.7	1.4	0.5	1
Cc1cccc(OCCSc2nnc(-c3ccoc3C)n2C)c1	1.4	-9	·	·	·	·	0.69	·	-1.7	1

Molecule	UCH37 DUB inh	T cruzi repl	Ecoli rRNA inh	Ecoli rRNA inh OD600	Ecoli rRNA inh RFP	FGF22 binding	Ecoli growth	AF4-AF9 inh	A1 inh	Beta cell apopt
O=C(CCn1cccc1)Nc1ccccc1F	-2.6	19	·	·	·	·	0.7	·	-0.6	-4
COC(=O)Nc1sc(C(=O)N(C)C)c(C)c1C(=O)OC	2.2	-2	7	-4	-2.5	·	0.74	·	1.0	-3
COc1cccc(NC(=O)COc2ccc(C(=O)N3CCN(C)CC3)cc2)c1	-3.3	-1	5	8	-0.2	i	0.64	8.4	0.1	-7
CC(C)CCn1cnc2c1c(=O)n(C)c(=O)n2C	3.5	0	·	·	·	·	0.7	·	-1.1	3
CC(=O)N(C)c1ccc(NC(=S)Nc2ccc(C(C)C)cc2)cc1	7.0	7	-41	-67	-8.2	i	0.7	1.3	0.6	-8
O=C1ON=C(c2ccccc2)/C1=C/c1ccc(O)c(O)c1	3.2	-3	2	10	2.7	i	0.67	-7.6	-0.5	-6
COc1c(OC)c(O)c2c(=O)cc(-c3c(O)cccc3O)oc2c1OC	4.7	17	·	·	·	i	0.69	-1.8	0.3	·
CC(C)OC(=O)/C(=C/c1cccnc1)NC(=O)c1ccccc1	1.0	14	·	·	·	·	0.68	·	0.8	-2
CNc1sc(C(=O)c2ccccc2F)c(N)c1-c1nc2ccccc2s1	0.4	13	·	·	·	·	0.73	·	-1.8	15
COC(=O)c1ccc(C(=O)N2CCCC(CNC(=O)c3ccccc3Cl)C2)cc1 (centres undefined)	0.8	5	13	15	-0.3	i	0.71	-1.5	0.0	1

Molecule	UCH37 DUB inh	T cruzi repl	Ecoli rRNA inh	Ecoli rRNA inh OD600	Ecoli rRNA inh RFP	FGF22 binding	Ecoli growth	AF4-AF9 inh	A1 inh	Beta cell apopt
CC(C)CCNC(=O)CN(Cc1ccccc1)C(=O)CCC(=O)Nc1nccs1	-0.2	5	1	3	3.5	i	0.69	0.1	0.5	2
CCOc1ccc(C(=O)NCc2ccco2)cc1OC	2.3	7	4	12	-0.5	i	0.67	-2.1	1.3	·
O=C(Nc1ccccc1)Nc1scc2c1c(=O)oc1ccccc12	3.4	8	-5	13	1.1	i	0.64	2.7	0.0	-5
O=C(O)CSc1ccnc2cc(Cl)ccc12	7.0	0	-4	-17	-1.4	i	0.65	-11	-0.3	6
O=C(NNc1cc(C(F)(F)F)ccc1Cl)c1ccc(=O)[nH]c1	3.5	-1	-5	1	-4.1	i	0.71	-2.1	-0.6	-5
Cc1ccc(N2C(SCC(=O)O)=NC(=Nc3cccc(C)c3)C23CCCC3)cc1	2.4	-5	8	3	0.8	i	0.66	-2.5	0.1	-6
CCOC(=O)Cn1cc(C#N)c2cccc(CC)c21	-0.8	-2	-13	-15	-1.2	i	0.64	-2.1	1.1	-5
CCOc1ccc(-c2nc(CN3CCCC(C(=O)N4CCOCC4)C3)c(C)o2)cc1 (centres undefined)	-0.7	27	7	12	1.9	i	0.75	1.4	-0.1	-2
CC(O)CN1C(=O)C(CC(=O)Nc2ccc(Cl)cc2)SC1=Nc1ccccc1 (centres undefined)	3.3	15	·	·	·	·	0.73	·	-0.7	1
CSCCc1nc(SCC(=O)Nc2nnc(C)s2)[nH]c1C	0.9	-16	·	·	·	·	0.76	·	0.6	0
N#Cc1ccsc1NC(=O)CSc1nnnn1-c1ccc(O)cc1	2.5	5	-26*	-7.6*	11*	i	0.7	-1.8	-4.0	-6

Only part of the results is shown; count on the stated rates, not on these rows.
